# Screening results (PubChem)
# Bst PK mod: Pyruvate Kinase; partly purified Bacillus stearothermophilus pyruvate kinase, luminescence ATP production; ribose 5-phosphate activator present at AC10; Potency, µM; hit rate 1.2% among 51,000; AID 361, 2006; in the data active means potency below about 11 µM; inconclusive means mostly about 12 µM to 25 µM; inactive means weaker than that;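 the screen sought inhibitors and activators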;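 further: potency means the concentration at half of the fitted maximal effect; scaled between full activation by ribose 5 phosphate and full inhibition by luteolin; about four in five hits inhibit and the cells do not say which; series up to 57 µM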
# TsaE inh: qHTS Assay for Inhibitors of YjeE; purified YjeE, fluorescence polarisation of a bound ADP probe; tRNA threonylcarbamoyladenosine biosynthesis protein TsaE (Escherichia coli (strain …; hit rate 0.05% among 71,000; Potency, µM; AID 605, 2007; active = well fitted falling curve; inconclusive = weaker or top-dose-only fall, or a rising curve; inactive = flat or poorly fitted curve;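 further: top concentration of the series not given in the record; excess ADP was the control for the full effect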
#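 Purified YjeE (10 uM) with BODIPY Texas Red-labeled ADP probe (2 uM); compounds pin-transferred, 15 min at room temperature. Binding inhibition read as decreased fluorescence polarization; ADP titration as control.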
# Numbers without * were called inactive; i = inactive; ? = inconclusive; . = not tested or not shown. This is a subset, so the mix of outcomes need not match the whole.
TsaE inh	Bst PK mod	structure
i	>57	CSCCC(NS(=O)(=O)/C=C/c1ccccc1)C(=O)N1CCC(C)CC1 (centres undefined)
i	.	CC1CC(=O)C2=C(C1)OC(N)=C(C#N)C2c1coc2ccccc2c1=O (centres undefined)
i	.	CCOC(=O)c1[nH]cnc1C(=O)Nc1cccc(N)n1
i	.	O=C(CSc1nc2c(c(=O)n1-c1ccccc1)SCC2)N1CCN(c2ccccc2)CC1
i	>57	CC(=O)NC1CC(C)(C)N(OC(C)=O)C(C)(C)C1
i	>57	CCOC(=O)N1CCN(C(=O)c2n[nH]c(=O)c3ccccc23)CC1
i	>57	N#Cc1cn(CC(=O)NCc2cccnc2)c2ccccc12
i	>57	Cn1nc(C(C)(C)C)cc1C(=O)NCc1ccc(N2CCCC2=O)cc1
i	>57	CC1Cc2ccccc2N1C(=O)C1CCCN1S(=O)(=O)c1ccc(Cl)cc1 (centres undefined)
i	>57	O=c1[nH]c2cc3c(cc2cc1C(c1nnnn1C1CCCCC1)N1CCSCC1)OCCO3 (centres undefined)

# Grouped by structure: the compounds so far containing nitrogen in an aromatic ring.
TsaE inh	Bst PK mod	structure
i	.	CCOC(=O)c1[nH]cnc1C(=O)Nc1cccc(N)n1
i	.	O=C(CSc1nc2c(c(=O)n1-c1ccccc1)SCC2)N1CCN(c2ccccc2)CC1
i	>57	CCOC(=O)N1CCN(C(=O)c2n[nH]c(=O)c3ccccc23)CC1
i	>57	N#Cc1cn(CC(=O)NCc2cccnc2)c2ccccc12
i	>57	Cn1nc(C(C)(C)C)cc1C(=O)NCc1ccc(N2CCCC2=O)cc1
i	>57	O=c1[nH]c2cc3c(cc2cc1C(c1nnnn1C1CCCCC1)N1CCSCC1)OCCO3 (centres undefined)

# The list continues:
TsaE inh	Bst PK mod	structure
i	>57	CCC(C)NC(=O)C1(C)CCC(=O)N1Cc1ccccc1OC (centres undefined)
i	.	CCCn1c(=O)c2[nH]c(-c3ccc(S(=O)(=O)O)cc3)nc2n(CCC)c1=O
i	>57	COc1ccc(CNc2cc(C)ccc2C)c(OC)c1OC
i	>57	CCNc1nc(SCCOc2ccccc2)nc(N(C)C)n1
i	.	CCOC(=O)C(C)n1cnc2sc3c(c2c1=O)CCC3 (centres undefined)
i	>57	O=C(Nc1ccccc1)N1CCCC(c2nc(-c3cccs3)no2)C1 (centres undefined)
i	?	O=C(Nc1ccc2c(c1)OCO2)c1noc2c1CCCCC2
i	.	O=C(O)CCCC(=O)N(Cc1ccccc1)Cc1ccccc1
i	.	CC(C)Oc1ccc(C(=O)N2CCCc3ccccc32)cc1
i	>57	O=c1[nH]c(=S)[nH]nc1Cc1ccccc1
i	.	NC(=O)c1ccccc1NC(=O)c1ccccc1F
i	>57	O=C(c1ccco1)N1CCN(c2nc(C(F)(F)F)nc3c2nnn3Cc2ccccc2)CC1
i	>57	CC1(C)CC(=O)N(CC(=O)O)c2ccccc2S1
i	.	Cn1c(NCc2ccccc2Cl)nc2ccccc21
i	>57	COc1ccc(OC)c(C(=O)Cn2nnc3ccccc3c2=O)c1
i	>57	C=CCOC(=O)C1=C(C)NC2(O)c3ccccc3C(=O)C12O (centres undefined)
.	>11	CC1(C)Cc2c(oc3ncn4ncnc4c23)CO1
i	>57	COc1cc(C(=O)N(C)c2nnc(-c3cccnc3)s2)cc(OC)c1OC
i	>57	COC(=O)c1cccc(COC(=O)CNC(=O)c2ccco2)c1
i	>11	Cc1c(NC(=O)C2CCCN2S(=O)(=O)c2ccc(Cl)cc2)c(=O)n(-c2ccccc2)n1C (centres undefined)
i	>57	Cc1cc(C(=O)Nc2sc(C)c(-c3ccc(F)cc3)c2C(N)=O)no1
i	?	O=C(Nc1ccc2oc(Cc3ccc(Cl)cc3)nc2c1)c1cccnc1
i	>57	CN(C)/C=N/c1c(C(=O)NCc2ccccc2)nnn1Cc1ccccc1
i	>57	CCc1c(C(=O)NC2CCCCC2)[nH]c(C)c1C(C)=O
i	.	COc1cccc(C(=O)NCCN2CCN(c3ccc(Cl)cc3)CC2)c1
i	>57	CCCCN(C)S(=O)(=O)c1ccc(C(=O)Nc2nnc(CSC)o2)cc1
i	>57	CC(C)Cn1cc(C(=O)N2CCN(c3ccccn3)CC2)c2c3ccccc3n(C)c2c1=O
i	>57	O=C(Nc1ccc(F)c(F)c1)c1cccnc1
i	.	O=c1c(CCc2ccccc2)nc2cncnc2n1Cc1ccccc1Cl
i	.	Cc1cc(=O)oc2cc(O)cc(O)c12

# Three entries out of the list, arranged by number of heavy atoms, smallest number first.
TsaE inh	Bst PK mod	structure
i	>57	O=C(Nc1ccc(F)c(F)c1)c1cccnc1
i	?	O=C(Nc1ccc2oc(Cc3ccc(Cl)cc3)nc2c1)c1cccnc1
i	.	O=c1c(CCc2ccccc2)nc2cncnc2n1Cc1ccccc1Cl

# Continuation:
TsaE inh	Bst PK mod	structure
i	>57	CCCn1c(SC2C(=O)CC(C)(C)CC2=O)nc2c1c(=O)n(C)c(=O)n2C
i	.	Cc1noc(C)c1C(=O)N1CCC2(CCCN(Cc3ccc(C#N)cc3)C2)CC1
i	>57	CCOc1ccc(OCC)c(NC(=O)CCCN2C(=O)c3cccnc3C2=O)c1
i	>57	COc1cccc(C(=O)CSc2nnnn2C)c1
i	.	COc1ccc2[nH]c(C)c(CCN3C(=O)C4C5C=CC(C5)C4C3=O)c2c1 (centres undefined)
i	.	Cc1ccc2c(c1)-c1c(cnn1CC(=O)Nc1ccccc1N1CCN(C)CC1)CO2
i	.	COc1cccc(-c2nn(C)c3sc(C(=O)Nc4ccc5c(c4)OCCO5)cc23)c1
i	.	NC(=O)c1cc[n+](CC2=C(C(=O)[O-])N3C(=O)[C@@H](NC(=O)Cc4cccs4)[C@@H]3SC2)cc1
i	>57	Cc1noc(C)c1CN1C(=O)NC(Cc2ccccc2)(Cc2ccccc2)C1=O
i	.	COc1cc2c(cc1NC(=O)CSc1nnc(Cc3cccs3)n1C)oc1ccccc12
i	>57	O=C(NCc1ccco1)c1cccc(F)c1
i	>57	CC1Cc2ccccc2N1S(=O)(=O)c1cccc(C(=O)NCCCO)c1 (centres undefined)
i	.	O=C(OCc1nnc(-c2ccccc2)o1)c1ccco1
i	>57	Cn1c(C(C#N)C(=O)c2sc3ccccc3c2Cl)nc2ccccc21 (centres undefined)
i	.	O=C(O)C1C(C(=O)O)C(C(=O)O)C1C(=O)O (centres undefined)
i	.	COc1ccc2ccccc2c1C1CC(=O)N2CN(C3CCCCC3)CSC2=C1C#N (centres undefined)
i	>57	Cc1ccc(C(C(=O)NC2CCCC2)N(Cc2ccco2)C(=O)CCC(=O)Nc2ccccn2)cc1 (centres undefined)
i	>57	COc1ccc2nc(NC(=O)CN(c3ccc(C)cc3)S(=O)(=O)c3c(C)nn(C)c3C)sc2c1
i	>57	Cn1c(=O)[nH]c(=O)c2c1nc(NC1CCCCC1)n2CC(=O)NC1CCCCC1
i	>57	COC(=O)CSc1nnc(CNC(=O)c2ccccc2OC)n1C
i	>57	Cc1ccc(Nc2nc(C)c(CCC(C)C)c(=O)[nH]2)cc1
i	.	Cc1occc(=O)c1O
i	>57	Cc1ccc(Cc2cnc(N)s2)o1
i	>11	C/C(Cl)=C\CSc1nnc2n(N)c(=O)c3ccccc3n12
i	>57	CCOC(=O)Cc1csc(NC(=O)CSc2nnc(C3CC3)n2C)n1
i	>57	CCCCNC1C(CC)C(CCC)C(C#N)(C#N)C1(C#N)C#N (centres undefined)
.	>26	COc1ccc(C(C)=O)cc1CSCCC(=O)O
?	.	CC(=O)N1CCC2(CCCN(c3ccc(-c4ccccc4)cc3)C2)CC1
i	>57	O=C(CCOc1ccccc1)OCC(=O)c1cc2ccccc2o1
i	>57	C=CCN(CC=C)S(=O)(=O)c1ccc2nc(NC(=O)C(C)C)sc2c1
i	>57	CCOC(=O)C1CCN(S(=O)(=O)c2cccc3nonc23)CC1
i	>57	O=C(CCCN1C(=O)c2ccccc2C1=O)NCCCN1CCOCC1
i	>57	Cc1ccc(Nc2nnc(SCc3cc(=O)n4ccsc4n3)s2)c(C)c1
i	?	Brc1ccccc1-c1nnc2sc(-c3ccc4c(c3)OCCO4)nn12
.	>26	CCC1(C)Cc2c(sc3c2c(=O)n(C)c2nnc(SCc4ccccc4)n32)CO1 (centres undefined)
i	.	N#Cc1ccccc1NC(=O)c1ccc(-c2ccccc2Cl)o1
i	.	O=C(CSc1nc2c(sc3ccccc32)c(=O)n1CCO)NCC1CCCO1 (centres undefined)
i	>57	Cn1c(=O)cc(SCC(=O)Nc2cccnc2)c2ccccc21
i	>57	Cc1ccc(CS(=O)(=O)CCC(=O)NCc2cccs2)cc1
i	.	Cc1cccc(CNc2ccnc(-c3ccccc3Cl)n2)c1

# Single entries from the results shown.
# O=C(CCCN1C(=O)c2ccccc2C1=O)NCCCN1CCOCC1 in Bst PK mod is entered as >57
# Cc1ccc(Cc2cnc(N)s2)o1 in Bst PK mod is entered as >57

# (cont.)
TsaE inh	Bst PK mod	structure
i	>57	COC(=O)c1ccc(C2C3=C(Nc4nnnn42)c2ccccc2OC3)cc1 (centres undefined)
i	>57	CCCn1c(SCC(=O)NC2CCCCC2)nnc1-c1ccncc1
i	>57	COc1ccc(C(NC(=O)c2ccco2)c2ccc(OC)c(OC)c2)cc1OC
i	>57	O=C(CSc1nnnn1Cc1ccccc1)c1ccccc1
i	.	CCOC(=O)C(C)Sc1nc(-c2ccc(OC)cc2)nc2c1c(=O)n(C)c(=O)n2C (centres undefined)
i	>57	COc1ccc(C(=O)CSc2nnc(COc3ccccc3)n2Cc2ccco2)cc1
i	>57	CCN1C(=O)CC(C(=O)Nc2ccc(F)cc2)SC1=Nc1ccc2c(c1)OCO2 (centres undefined)
i	.	CCOC(=O)C(C(=O)OCC)C(C)C#CCN1CCCCC1 (centres undefined)
i	.	Cc1nc(NCc2ccccc2)c2nc(-c3ccccc3)n(CC(C)(C)CN(C)C)c2n1
i	>57	CC(=O)c1cccc(NC(=O)Nc2c(C)nn(C)c2C)c1
i	>57	c1coc(Cn2nnnc2CN2CCN(C3CCCC3)CC2)c1
i	.	CCOc1cccc(OCCCCn2ccnc2)c1
i	.	COc1cccc(Nc2ncc3nc(-c4ccc(F)cc4)c(=O)n(CCC#N)c3n2)c1
i	.	OC(c1ccccc1)c1nc2ccccc2s1 (centres undefined)
i	>57	COc1ccc(S(=O)(=O)N(C)CC(=O)Nc2cccc(C(C)=O)c2)cc1
i	>57	Cc1cc(C)n2nc(SCC(=O)Nc3c(C)nn(-c4ccccc4)c3C)nc2n1
i	>57	COc1ccc(-n2ncc3c(=O)n(CC(=O)OCc4ccccc4)cnc32)cc1
i	>57	CCC1(C)CC(=O)N(c2ccc(C(=O)O)c(O)c2)C1=O (centres undefined)
i	.	Cc1ccc2nc(NC(=O)C3CCCN(S(=O)(=O)c4cccnc4)C3)sc2c1 (centres undefined)
i	.	c1ccc2c(c1)[nH]c1nc3nncn3nc12
i	>11	Cc1cc(C(=O)CSc2nnc(Nc3ccccc3)s2)c(C)n1CC1CCCO1 (centres undefined)
i	>57	COc1cccc(OCC(=O)Nc2ccc(OC)c(OC)c2)c1
i	.	NC(=O)CSc1nnc2sc3ccccc3n12
i	>57	COCCn1c(=S)[nH]c2cc(C(=O)N3CCN(c4ccc(F)cc4)CC3)ccc2c1=O
i	.	O=c1c(-c2ccc(F)cc2)nc2cnc(Oc3ccccc3)nc2n1C1CC1
i	>57	CN1C(=O)c2ccc(C(=O)NCc3ccccc3)cc2C1=O
i	>57	CCC1C(=O)N=C(SCC(=O)Nc2ccc(C(=O)OC)cc2)NC1=O (centres undefined)
i	>57	CCCCn1nnnc1NCc1cccc(OC)c1OC
i	>57	COc1ccc(NC(=O)CSc2nnc(-c3ccccc3)n2N)cc1
i	.	N[C@@H](Cc1cc(-c2ccc(Cl)cc2Cl)cc(CP(=O)(O)O)c1O)C(=O)O
i	>57	Cc1[nH]c(=O)[nH]c(=O)c1S(=O)(=O)N1CCCC(C(=O)NCc2ccco2)C1 (centres undefined)
i	>57	O=C(NCCN1CCOCC1)c1csc2c1CCCC2
i	>57	Cn1cccc1C(=O)N1CCN(c2cccc(C(F)(F)F)c2)CC1
i	>11	CC(=O)O[C@]1(C(C)=O)CC[C@H]2[C@@H]3C[C@H](C)C4=CC(=O)CC[C@]4(C)[C@H]3CC[C@@]21C
i	>57	CCC(C(=O)Nc1ccccc1OC)n1c(C(=O)OC)cc2ccsc21 (centres undefined)
i	>57	Cc1cccc(Cn2c(=O)n(CCCC(=O)NCc3ccco3)c(=O)c3ccccc32)c1
i	>57	CCn1c(SCC(=O)Nc2c(C)n(C)n(-c3ccccc3)c2=O)nnc1-c1cccc(C)c1
i	>57	Nc1nc(SCC(=O)N2CCc3ccccc32)[nH]c(=O)c1-c1ccccc1
i	.	CC(=O)N1CC=CC1(C)C(=O)O (centres undefined)
i	>57	COc1cccc(C2(O)CCN(C(=O)C3CCC3)CC2)c1
i	>57	COc1ccc(C2C(C#N)=C(N)Oc3cc(O)ccc32)cc1OC (centres undefined)
i	>57	Cc1cccc(OCC(=O)NCCN2CCOCC2)c1
.	>26	C[C@@H]1C[C@H]2[C@@H]3C[C@H](F)C4=CC(=O)C=C[C@]4(C)[C@@]3(F)[C@@H](O)C[C@]2(C)[C@@]1(O)C(=O)CO
i	>57	COc1ccc(NC(=O)COc2nsnc2N2CCCCC2)cc1
i	.	CCCc1cc(C(=O)Nc2ccccc2SC)no1
i	>57	CCOc1ccc(C2=[N+]([O-])C(C)(C)N(O)C2(C)C)cc1
